Screening data (PubChem)
Bm FixLJ act: B. multivorans fixK reporter activation | B. multivorans fixK-promoter GFP reporter, 18 h; stronger effect = higher value | 29,000 compounds, 0.3% hits | z-score (no concentration beside the values) | AID 1918990;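 active means replicate mean overnight rise in green fluorescent reporter signal, 3 or more SD over negative controls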;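 further: score is relative to vehicle wells of the plate; 300 nL library stock went into each well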
* marks the source's active call; other numbers are inactive results; & = joins results of further samples. The list is partial; the hit share may differ from the screen's.

structure	Bm FixLJ act
Cc1ccc(-c2nnn(CC(=O)N(CC(=O)NCCC(C)C)c3ccc(F)cc3)n2)cc1	-2.2
Cc1cc(C)c2c(CC(=O)N(Cc3ccc(Cl)cc3)Cc3ccco3)coc2c1	-0.45
CN[C@@H]1[C@@H](O)[C@@H](O[C@@H]2[C@@H](O)[C@H](O[C@H]3O[C@H]([C@@H](C)NC)CC[C@H]3N)[C@@H](N)C[C@H]2N)OC[C@]1(C)O	-0.86
O=C(O)c1cn(-c2ccc(F)cc2)c2cc(N3CCNCC3)c(F)cc2c1=O	-4.7&-4.4
CN(CCN(C)C1CCCC1)c1cc(C2CC(N)C2)ncn1 (configuration not stated)	-0.26
COc1ccc(CNC(=O)c2cc3c(=O)n4cccc(C)c4nc3s2)cc1	-1.7
CC(C)n1cc(NC(=O)NCc2nc(-c3cnccn3)n[nH]2)nn1	-2.3
CC(C)n1cnnc1CN(C)C(=O)CCc1csc(N)n1	-0.55
O=C(NCc1cc(C2CC2)n[nH]1)c1nc2ccccc2[nH]c1=O	-2.3
CCc1cccc(C)c1NC(=O)Cn1c(=O)n(-c2ccc(C)cc2)c(=O)c2c1cnn2C	-1.3
COc1ccc(-c2noc(CN(C(=O)C(C)Oc3ccc(C)cc3)C(C)C)n2)cc1 (configuration not stated)	-2.9
Cc1ccc(CNc2nc3ccc(Cl)cc3n3cnnc23)cc1	-1.7
Cn1c(CN2CCOCC2)nnc1C1CCN(C(=O)c2ccccn2)CC1	1.1
COc1ccc(C2CC(=O)Nc3c2c(=O)[nH]c2nc4ccccc4n32)cc1OC (configuration not stated)	0.42
CCOC(=O)C1CCCN(c2c(C(=O)c3ccc(C)cc3)cnc3ccc(OCC)cc23)C1 (configuration not stated)	-0.73
CCC(Sc1nc2ccccc2o1)C(=O)NCCN1CCCOC1=O (configuration not stated)	-0.32
Cc1[nH]c2ccc(F)cc2c1CCNC(=O)c1cc2cc(Cl)ccc2oc1=O	-2.3
Cc1ccc(OCC(=O)N(Cc2ccc(Cl)cc2)Cc2ccco2)cc1C	0.77
O=C(Nc1ccnn1C1CCCC1)c1cnc2c(c1)CCCC2	-0.22
Cc1cc(F)ccc1S(=O)(=O)Nc1cc2c(C(=O)O)c(C)oc2c2ccccc12	-0.82
COc1ccc(N(C)C(=O)c2cc3c(s2)-c2c(C)cccc2OC3)c(OC)c1	0.07
CC(=O)N1CCC2(CC1)CN(Cc1cc(-c3ccccn3)no1)CCO2	-0.34
Cc1nn(C)c2nc(N(C)CCc3noc(C(C)C)n3)sc12	0.8
CN(Cc1ccccc1)Cc1cc(C(=O)N(C)CC2(C)CCN(C)C2)no1 (configuration not stated)	-1.2
Cc1ccc(NC(=O)CCc2nc(-c3ccccc3F)no2)c(C)c1	0.09
CN(Cc1ccccc1)C(C(=O)NC1CCCCC1)c1ccc(Cl)cc1 (configuration not stated)	-1.3
COc1ccc(OC)c(S(=O)(=O)Nc2cc3c(C(C)=O)c(C)oc3c3ccccc23)c1	-0.04
COc1ccc(-c2cc(C(=O)NCCCCN3CCCCCC3)[nH]n2)cc1	-0.02
Cc1cccc(N(CC(=O)NCCSc2ccc(Cl)cc2)S(=O)(=O)c2ccccc2)c1C	0.51
O=C(CSc1oc(-c2ccco2)nc1S(=O)(=O)c1ccc(Cl)cc1)c1ccccc1	2.5
CCc1ccccc1Nc1cc(C(=O)NCCCN(C)C2CCCCC2)c2ccccc2n1	-1.1
Cc1ccc(CN2C(=O)SC(Nc3ccccc3)C2=O)cc1 (configuration not stated)	-1.2
Cc1cccc(NC(=O)CSC2=Nc3ccccc3C3=NC(CCC(=O)NCc4ccc(F)cc4)C(=O)N23)c1 (configuration not stated)	-1.8
Cc1cnc(C(=O)N2CC3CCC2CN(C(=O)c2ccccc2)C3)cn1 (configuration not stated)	-0.18
COc1ccc(Cl)cc1NC(=O)CCS(=O)(=O)c1cccc2nonc12	1.4
Cc1c(CNC2CCCCC2)c(C(=O)O)c(C)n1Cc1ccc(F)cc1	-1.8
CCOc1ccc(S(=O)(=O)N2CCC(O)C(C(=O)O)C2)cc1C (configuration not stated)	-0.47
Cc1ccc(-c2nnc(Nc3ccc(S(N)(=O)=O)cc3)c3ccccc23)cc1S(=O)(=O)N1CCOCC1	1.2
CCc1ccc(NC(=O)Cn2nc(C(F)(F)F)c3c2CCCC3)cc1	0.33
CC(=O)C1(c2ccccc2)CCN(C(=O)c2c[nH]c(=O)cn2)CC1	-0.79
COc1ccc2[nH]c(=O)c(CN(C(=O)c3cccc(Cl)c3)c3ccccc3C)cc2c1	-1.3
CCc1ccc(NC(=O)Cn2c(=O)n(CCC(=O)NCc3ccc4c(c3)OCO4)c(=O)c3ccccc32)cc1	-2.2
CC(C)Cc1nc(CN(C)C(=O)NCc2noc(-c3cccs3)n2)no1	-0.89
CCC(C)n1c(=N)c(C(=O)NCc2ccco2)cc2c(=O)n3cc(C)ccc3nc21 (configuration not stated)	-1.5
Cn1c(=O)c2c(nc(N3CCOCC3)n2Cc2cccc(Br)c2)n(C)c1=O	-0.35
COc1ccc(-n2c(-c3ccco3)nc3c(cnn3-c3ccc(C)cc3)c2=O)cc1	-0.29
COc1ccc(-c2c(C#N)c(SCC(=O)Nc3ccccc3C)nc(C)c2C(=O)Nc2ccc(Cl)cc2)cc1	2.6
c1ccc(C2CC(c3noc(CCCn4ccnc4)n3)[C@@H]3CCCN23)cc1 (some centres not stated)	1
CC(=O)c1cc(C(=O)Nc2cc(C)cc(C)c2)c2ccccn12	-0.94
Cn1c(Oc2cccc(Cl)c2)nc2c1c(=O)n(Cc1ccccc1Cl)c(=O)n2C	0.25

(cont.)
structure	Bm FixLJ act
COc1ccc2c(c1)NC(c1ccc(OCC(C)C)cc1)=NC(c1ccncc1)=N2	1.5
N#Cc1nc(COc2cccc(Cl)c2)oc1NCCc1ccccc1	0.52
COc1ccc(CC(=O)NCc2ccc3c(c2)CCCO3)c(OC)c1	-1.1
COc1ccccc1-n1nc(-c2ccccc2)c2cnc3c(F)cc(F)cc3c21	0.95
CCOC(=O)c1cnc2c(Cl)c(Cl)ccc2c1NCCN1CCOCC1	-0.98
O=C(Cn1nnc(-c2ccccc2Cl)n1)Nc1ccc(Br)cc1	-0.09
CCc1ccc(NC(=O)CSc2nc3c(oc4ccccc43)c(=O)n2-c2cccc(C)c2)cc1	1
CCOc1ccc(NC(=O)CC2C(=O)N(c3ccccc3)C(=O)N2Cc2ccc3c(c2)OCO3)cc1 (configuration not stated)	-2.1
Cc1ccc(CNC(=O)CCNS(=O)(=O)c2ccc3c(c2)oc(=O)n3C)cc1	-0.49
CCN(CC)c1cc(C)c2cc(NC(=O)c3cc(OC)cc(OC)c3)ccc2n1	-1.5
CCSc1ncc(Cl)c(C(=O)Nc2ccc(S(=O)(=O)N3CCCCC3CC)cc2)n1 (configuration not stated)	0.64
Cc1ccc(NC(=O)CN(C)C)cc1NC(=O)CCc1scnc1C	0.09
CCc1nn(C)c(NC(=O)N2CCCC2Cn2cccn2)c1C (configuration not stated)	-1.2
COc1ccccc1Nc1c2c(nc3ccc(NC(=O)c4ccc(OC)c(OC)c4)cc13)CCCC2	-0.46
Cc1cc(C)c(NC(=O)Cn2nnc(C(=O)NCc3cccs3)c2N)c(C)c1	-0.13
CCC(=O)N1CCc2cc(Br)cc(S(=O)(=O)CCC(=O)NCc3ccc(F)cc3)c21	-0.18
CC(=O)N1CCN(C(=O)CC23CC4CC(CC(C4)C2)C3)CC(O)C1 (configuration not stated)	-1.5
CCOc1ccc(CCNC(=O)Cn2nnc(-c3ccc(C(F)(F)F)cc3)n2)cc1OCC	-2.2
C[N+](C)(C)CC(=O)[O-]	-0.12
O=C(c1cn2cccnc2n1)N1CCC(CCc2ccccc2)CC1	-0.78
Cc1cccc(OCC(=O)Nc2ccc(-c3nc4ccccc4o3)cc2)c1C	1.4
CCCCN(CCCC)CCCNC(=O)c1cc(-c2ccc(Cl)s2)nc2ccccc12	0.67
Cc1ccc(CN(Cc2ccco2)C(=O)COc2cc(C)c(Cl)c(C)c2)cc1	2.1
Cc1ccc(CNC(=O)CCc2nc3cccnc3n2Cc2ccccc2)cc1	-0.62
CCn1c(=O)c2cc(C(=O)NCCc3ccc(Cl)cc3)sc2c2ccccc21	-0.34

(next part)
SMILES | Bm FixLJ act
COc1ccccc1NC(=O)Cn1c(=O)n(CCCCCC(=O)NCc2ccccc2)c(=O)c2sccc21 | -1.9
CCc1cccc(OC2CN(C(=O)c3ccc(CO)o3)C2)c1 | 0.82
Cc1cccnc1NC(=O)CCN(C)CCc1nc2ccc(F)cc2[nH]1 | -4.8
CCN(C)CCN(C)C(=O)c1ccc(-c2ccc3cnc(N)cc3c2)cc1 | -0.61
CC(C)c1ccc2occ(CC(=O)Nc3ccccc3Cl)c2c1 | 0.79
CCCCN(C)CCCNC(=O)Cn1ncc2c3ccccc3n(Cc3cc(C)ccc3C)c2c1=O | -2
CCCc1oc2ccc(NS(=O)(=O)c3ccc(OCC)cc3)cc2c1C(=O)OCC | 1.4
Cc1cc(NC(=O)C2=C(O)c3ccccc3S(=O)(=O)N2C)no1 | -0.43
COc1ccccc1NC(=O)c1c(NC(=O)c2ccco2)sc2c1CCC(C(C)(C)C)C2 (configuration not stated) | -0.41
CN(C)S(=O)(=O)N(CC(=O)NCCSCc1cccc(Cl)c1)c1ccccc1 | -2
Cc1ccc(Cl)cc1N1CCN(C(=O)c2cn(C)c3ccc(S(=O)(=O)N4CCCC4)cc3c2=O)CC1 | -0.22
Cc1ccc(N2CCN(S(=O)(=O)c3cc(Br)cc4c3N(C(=O)C3CC3)CC4)CC2C)cc1 (configuration not stated) | -0.24
CCCCCn1c(=O)[nH]c2cc(C(=O)NCCN(C)CCCC)ccc2c1=O | -1.1
O=C(O)COCCN1CCN(C(c2ccccc2)c2ccc(Cl)cc2)CC1 (configuration not stated) | -1.9
CCN1CCN(Cc2c(O)ccc3c(=O)c(Oc4ccccc4Cl)c(C(F)(F)F)oc23)CC1 | -0.41
Cc1ccc(S(=O)(=O)c2cn(CC(=O)Nc3ccc4c(c3)OCO4)c3ccccc3c2=O)cc1C | 0.27
CCOc1ccccc1C(=O)N1CC(O)C(Cc2ccccn2)C1 (configuration not stated) | -0.73
COc1cc(OC)cc(-c2nc3n(n2)C(c2ccccc2)C(C(N)=O)=C(C)N3)c1 (configuration not stated) | 0.21
COc1ccc(Nc2c3c(nc4ccc(NC(=O)/C=C/c5cc(OC)c(OC)c(OC)c5)cc24)CCCC3)cc1OC | -0.36
O=C(Nc1cccc(C(F)(F)F)c1)C1CCCN(S(=O)(=O)c2cccc3nonc23)C1 (configuration not stated) | -1.3
NC(=O)N1CCCC1C(=O)NCc1ccc(-c2ccccc2)cc1 (configuration not stated) | 0.12
Cc1cccnc1CC(C)N(C)Cc1cnn(CCC(=O)O)c1 (configuration not stated) | 0.31
Cc1ccn2c(Nc3c(C)cccc3C)c(-c3ccc(Cl)s3)nc2c1 | -0.8
COCCNC(=O)c1nn(-c2ccc(Cl)cc2)nc1CO | -0.77
CCC(C)NC(=O)C1CCC(CNS(=O)(=O)c2cccc3nsnc23)CC1 (configuration not stated) | -1.8
CCCn1nc(C)c(NC(=O)c2cnc(-c3ccccn3)nc2)c1C | -1.9
Nc1nc(NCCO)cc(-c2cccc(C(=O)N3CCCCCC3)c2)n1 | -2.6
CCOc1c(Br)cc(C2C=C(C(=O)O)Nc3ncnn32)cc1OC (configuration not stated) | -0.3
Cc1cc(C)c2[nH]c(C(=O)N3CCN(CCS(C)(=O)=O)CC3)c(C)c2c1 | -2.9
Cc1cc(C)n(CCc2nc3c4ccccc4nc(N4CCN(c5ccc(F)cc5)CC4)n3n2)n1 | -0.7
Cc1cc(C)nc(CNC(=O)c2ccc(N3CCCC3)c(Cl)c2)n1 | 0.68
COc1cccc(OCCCn2c(-c3ccc(Cl)cc3)nc3ccccc3c2=O)c1 | 0.96
Cc1cccc(N2CCN(C(=O)c3oc(=O)c4ccccc4c3-c3ccccc3)CC2)c1C | -1.1
CCOc1ccc(CNC(=O)CSc2c3c(nc4ccc(Cl)cc24)CCCC3)cc1 | -2
COc1ccc(N(C)C(=O)c2cn(C)c(=O)c3cc(OC)c(OC)cc23)cc1 | -0.32
CCOc1cccc(C(=O)N2CC(O)C(Cc3cc(C)no3)C2)c1 (configuration not stated) | -0.68

Single values from above:
For Bm FixLJ act, Cc1cc(C)nc(CNC(=O)c2ccc(N3CCCC3)c(Cl)c2)n1 is listed with 0.68
For Bm FixLJ act, CCCn1nc(C)c(NC(=O)c2cnc(-c3ccccn3)nc2)c1C is listed with -1.9
For Bm FixLJ act, Cc1cc(C)c2[nH]c(C(=O)N3CCN(CCS(C)(=O)=O)CC3)c(C)c2c1 is listed with -2.9

More compounds:
SMILES | Bm FixLJ act
Cc1cccc(OC(C)(C)C(=O)N2CC(O)C(CS(=O)(=O)N(C)C)C2)c1 (configuration not stated) | 0.42
COc1ccc(S(=O)(=O)N(CC(=O)NCCSc2ccccc2)c2ccc(Cl)cc2)cc1 | 0.76
CN(CCC(=O)NCCc1nc2c(s1)CCCC2)C1CCS(=O)(=O)C1 (configuration not stated) | -0.34
COc1cc2c(=O)c(C(=O)c3ccc(C)c(C)c3)cn(Cc3ccccc3F)c2cc1OC | 0.4
CCCCN(CC)c1ncnc2c1sc1nc(N3CCOCC3)c3c(c12)CCCC3 | -0.34
CCCCSCc1cc(C(=O)NC2CC3OCCC23)oc1C (configuration not stated) | -2.4
Cc1cccc(-c2nc(SCC(=O)Nc3ccc4c(c3)OCO4)c(-c3ccccc3)[nH]2)c1 | 0.84
O=C(c1ccccn1)C1CCCN(C(=O)COc2ccc3nncn3n2)C1 (configuration not stated) | -0.32

Quoted at random: five records from the list
SMILES | Bm FixLJ act
CN(CCC(=O)NCCc1nc2c(s1)CCCC2)C1CCS(=O)(=O)C1 (configuration not stated) | -0.34
O=C(c1ccccn1)C1CCCN(C(=O)COc2ccc3nncn3n2)C1 (configuration not stated) | -0.32
COc1ccc(S(=O)(=O)N(CC(=O)NCCSc2ccccc2)c2ccc(Cl)cc2)cc1 | 0.76
Cc1cccc(OC(C)(C)C(=O)N2CC(O)C(CS(=O)(=O)N(C)C)C2)c1 (configuration not stated) | 0.42
Cc1cccc(-c2nc(SCC(=O)Nc3ccc4c(c3)OCO4)c(-c3ccccc3)[nH]2)c1 | 0.84
